Vaccinia mCherry: qHTS for Stage-Specific Inhibitors of Vaccinia Orthopoxvirus: mCherry Reporter Primary qHTS | Vaccinia virus mCherry reporter infection, fluorescence; about a quarter of the inactives have no number | Potency, µM (titrated, usually from 36.5 µM), inactives show at the top dose activity change, negative = inhibition, hits mostly inhibitors | 310,000 compounds, 0.63% hits | AID 720579, 2013; active = well fitted inhibition curve with a large enough effect; inconclusive = small, poorly fitted or top-dose-only effect; inactive = no such curve, though single readings can be large or run the other way; tested in A549 cells; note: nearly all actives have a fitted effect of over 35% in size; inactives centre near -10
Vaccinia Venus: qHTS for Stage-Specific Inhibitors of Vaccinia Orthopoxvirus: Venus Reporter Primary qHTS; 330,000 compounds, 0.46% hits; Vaccinia virus Venus reporter expression, fluorescence; Potency, µM (top dose mostly 36.5 µM), for the others: at the highest dose activity change, negative = inhibition, most hits filed as inhibitors; active means well fitted inhibition curve with a large enough effect; inconclusive means small, poorly fitted or top-dose-only effect; inactive means no such curve, though single readings can be large or run the other way; tested in A549 cells; note: nearly all actives have a fitted effect of over 30% in size; inactives centre near -10
* = called active by the depositor; i = inactive; ? = inconclusive; · = not tested or not shown; [ ] = another dose, or the depositor's remark. % is set by controls: 0 for no effect and ±100 for the full control effect; potency is the fitted concentration of half-maximal effect.

SMILES | Vaccinia mCherry | Vaccinia Venus
CN(C)c1ccc(C(C#N)c2ccc(Cl)cc2)nn1 (configuration not stated) | -13.8% | -10.0%
O=C1N=C(N2CCCC2C(=O)O)S/C1=C\c1ccco1 (configuration not stated) | 7.1% | 3.1%
COCCCNC(=O)CSc1nc2ccccc2c(=O)n1CCC(=O)NCCc1ccc(OC)c(OC)c1 | i | -8.5%
COc1ccc([C@H]2C[C@H](O)[C@@H](n3cc(C4CC4)nn3)CN2C(=O)c2cccs2)cc1 | i | 3.8%
O=C(CCSCc1cccc(Cl)c1)NCc1ccc(F)cc1Cl | -14.6% | -12.5%
CC(C)CCNc1nc(N)c([N+](=O)[O-])c(NCC2CCCO2)n1 (configuration not stated) | ? | ?
O=C(/C=C/c1cccc([N+](=O)[O-])c1)NCCSCc1ccccc1Cl | -14.6% | -11.9%
CC1CN(C2CCN(C(=O)c3ccccc3Cl)CC2)CC(C)O1 (configuration not stated) | · | -13.3%
CCCn1nnnc1SCC(=O)N1CCCc2ccccc21 | 3.0% | 5.6%
COc1cc2c(cc1OC)C(/C(C#N)=N\O)=NC(C)(C)C2 | -14.8% | -2.2%

5 compounds picked at random from the list so far, as already listed:
SMILES | Vaccinia mCherry | Vaccinia Venus
O=C(CCSCc1cccc(Cl)c1)NCc1ccc(F)cc1Cl | -14.6% | -12.5%
O=C(/C=C/c1cccc([N+](=O)[O-])c1)NCCSCc1ccccc1Cl | -14.6% | -11.9%
CC(C)CCNc1nc(N)c([N+](=O)[O-])c(NCC2CCCO2)n1 (configuration not stated) | ? | ?
O=C1N=C(N2CCCC2C(=O)O)S/C1=C\c1ccco1 (configuration not stated) | 7.1% | 3.1%
COCCCNC(=O)CSc1nc2ccccc2c(=O)n1CCC(=O)NCCc1ccc(OC)c(OC)c1 | i | -8.5%

Next results:
SMILES | Vaccinia mCherry | Vaccinia Venus
COc1ccc(NC(=O)c2ccco2)cc1NC(=O)COc1cc(C)cc(C)c1 | ? | -29.0%
Cc1cc(C)c(C)c(S(=O)(=O)N2CCN(CC(=O)Nc3ccc([N+](=O)[O-])cc3)CC2)c1C | -7.9% | -9.7%
O=C(Nc1ccccc1Cl)c1ccccc1Oc1ccc(C(F)(F)F)cc1[N+](=O)[O-] | · | ?
CC1CCc2c(sc(NC(=O)c3ccco3)c2C(=O)O)C1 (configuration not stated) | -21.5% | -22.9%
Cc1c(-n2c(SCC(=O)NC(C)C(C)C)nc3ccccc3c2=O)c(=O)n(-c2ccccc2)n1C (configuration not stated) | i | -10.6%
c1cc2nnnn2nc1N1CCCCC1 | i | -26.3%
O=C1CCCN1CCC1CCCCN1Cc1nc(COc2ccccc2)no1 (configuration not stated) | -10.2% | -6.2%
CNC(=O)Nc1cccc(NC(=O)NC)n1 | -4.4% | -7.5%
Cc1cccc(C(O)c2cnc(C)n2Cc2ccccc2)c1 (configuration not stated) | i | -6.8%
Cc1cc(C)n(-c2ccc(C(=O)OCC(=O)NCc3ccc(F)cc3)cc2)n1 | i | -6.1%
O=C(Nc1ccc(NC(=O)N2CCN(c3ccccc3O)CC2)cc1)N1CCN(c2ccccc2O)CC1 | ? | -8.5%
CCOc1ccc(OCCC(=O)OCC(=O)NCc2ccc(Cl)cc2)cc1 | -13.9% | -12.3%
CCCN(CCC)C(=O)Cn1c(=O)n(-c2ccc(Cl)c(Cl)c2)c(=O)c2c(C)c(C(=O)N(C)C)sc21 | -6.5% | -2.8%
CC1C(=O)N(Cc2cn(CCC3OCCO3)nn2)CCS(=O)(=O)N1Cc1ccc(-c2cccc(N(C)C)c2)cc1 (configuration not stated) | -3.9% | -18.8%
O=C(Nc1ccccc1)c1cc(C2CCCCN2S(=O)(=O)c2ccccc2)on1 (configuration not stated) | -22.0% | -8.0%
Cc1ccc(-c2noc(CCC(=O)N(C)c3ccccc3C)n2)cc1 | · | ?
Cc1ccc(Cc2c(C3CCCCC3)nc3cc(C)c(Br)c(C)n23)cc1 | -10.0% | -3.1%
Brc1ccc(CSc2nnc(Cc3c[nH]c4ccccc34)o2)cc1 | -11.2% | -10.6%
COc1ccc(CNC(=O)c2ccc(N3CCC4(CC3)CC(c3ccc(Cl)cc3)=NO4)c(NC(=O)c3ccccc3)c2)cc1 | -8.7% | -7.0%
C[C@@H]1CN([C@@H](C)CO)C(=O)c2cc(NS(=O)(=O)c3ccc(Cl)cc3)ccc2O[C@H]1CN(C)Cc1ccncc1 | ? | -7.8%
CCOC(=O)c1cc(CO)cc(C(=O)OCC)c1 | i | -4.8%
C[C@H](NC(=O)c1ncn2c1C(=O)N[C@@H](C)C2)c1ccccc1 | -16.1% | -25.9%
Cc1noc(C)c1COc1ccc(C(=O)NCCc2ccc(S(N)(=O)=O)cc2)cc1 | -6.7% | -12.0%
C[C@@H]1CN([C@H](C)CO)C(=O)CCCn2nncc2CO[C@H]1CN(C)C(=O)C1CCCCC1 | -13.7% | -4.2%
COc1ccc(C(=O)C2CCN(C(=O)c3ccc(C)cc3)CC2)cc1 | ? | ?
O=C(Nc1nc(-c2ccccn2)cs1)C1CC1 | -12.7% | -5.3%
CNC(=O)CC(CC(=O)c1ccccc1)c1ccccc1 (configuration not stated) | i | -7.9%
Cc1c(C=O)ccc(N(C)C)c1C | 37.7%[activator] | -8.7%
CCOC(=O)C1=C(C)N=c2s/c(=C\c3cc(OC)c(OC)c(OC)c3)c(=O)n2C1/C=C/c1ccccc1 (configuration not stated) | -13.8% | -19.8%
O=C(C1CCC1)N1CCN(S(=O)(=O)c2cc(F)ccc2F)CC1 | i | -11.5%
COc1ccc(CNC(=O)CN(C(=O)CCC(=O)Nc2nccs2)c2ccccc2C)cc1 | i | -17.2%
COc1ccc(C(C(=O)NC2CCCC2)n2c(-c3cccs3)nc3ccccc32)cc1 (configuration not stated) | 0.9% | -9.8%
COc1ccc(C(=O)N2CCCCCC2)cc1OC1CCN(C(C)C)CC1 | -22.8% | -18.3%
O=C1C2CCCN2c2ccc(S(=O)(=O)N3CCOCC3)cc2N1Cc1ccccc1F (configuration not stated) | -11.2% | -4.4%
COc1ccccc1CC1/C(=N/O)C2CCN1CC2 (configuration not stated) | -12.6% | -4.0%
CCCn1ccc(O)c(Cc2ccc(Cl)cc2)c1=O | -28.5% | -18.5%
Cc1ccnc(NC(=O)CCC(=O)N(CC(=O)NC(C)(C)C)c2ccc3c(c2)OCCO3)c1 | i | -5.6%
CCN(CC(=O)NCc1ccc(Cl)cc1)C(=O)c1ccc(S(=O)(=O)N(C)C)cc1 | 3.8% | -2.4%
CN1OC[C@@H]2CN3C(=O)N(c4ccccc4)c4ccccc4[C@@H]3C[C@@H]21 | 9.1% | -3.6%
COC(=O)Nc1nnc(-c2ccc(OC)cc2)s1 | i | -8.9%
Cc1c2ccccc2nc2c(F)c(N(C)C)c(F)c(F)c12 | -7.5% | 32.1%[activator]
COc1cc(C(O)CN)ccc1O (configuration not stated) | -13.9% | -9.1%
COc1cccc(C(=O)Nc2cccc(NC(=O)c3ccc(Cl)cc3Cl)c2)c1 | -15.2% | -9.7%
CCC(Sc1nnc(C)s1)C(=O)Nc1nccs1 (configuration not stated) | 6.9% | 11.6%
Cc1ccnc(SCC(=O)N2CCN(c3cccc(Cl)c3)CC2)n1 | -18.0% | -16.2%
Cc1ncc([N+](=O)[O-])n1CC(=O)Nc1ccc(F)cc1F | -8.7% | -1.2%
CC1CN(C(C)C(=O)NNC(=O)c2ccc(F)cc2)CC(C)O1 (configuration not stated) | -7.2% | 5.7%
CCc1nnc(NC(=O)c2nc(S(=O)(=O)Cc3ccccc3)ncc2Cl)s1 | i | -5.8%
Cc1cccc(NC(=S)N2CCN(C(=O)c3ccco3)CC2)c1C | -14.4% | -3.6%
COC(=O)c1cccc(N(CC(=O)NCC2CCCO2)C(=O)CCC(=O)Nc2cc(C)on2)c1 (configuration not stated) | -13.3% | -3.0%

(more compounds)
SMILES | Vaccinia mCherry | Vaccinia Venus
CC(Sc1nnc2n1CCCCC2)C(=O)Nc1cccc(S(=O)(=O)N2CCOCC2)c1 (configuration not stated) | -11.6% | -6.1%
CCOc1ccc(NC(=O)CN(C)C(=O)CCc2nc3ccccc3c(=O)[nH]2)cc1OCC | -4.6% | -15.0%
CS(=O)(=O)c1ccc(-c2csc(C(O)(c3ccccc3)C(F)(F)F)n2)cc1 (configuration not stated) | -21.1% | -18.5%
Clc1cccc(Cc2ccc(Cl)nn2)c1 | 4.1% | 3.4%
O=c1oc2ccccc2c(Nc2ccccc2)c1[N+](=O)[O-] | · | -24.2%
Cc1cc2c(cc3c(SCc4nc(-c5ccccc5)oc4C)nnc(C)n32)o1 | -6.6% | -7.4%
COC(=O)C1=C(C)N(CCCC(=O)O)C(=O)NC1c1ccccc1OS(=O)(=O)c1ccc([N+](=O)[O-])cc1 (configuration not stated) | -12.4% | -2.5%
CCOC(=O)CC(S(=O)(=O)c1ccccc1)S(=O)(=O)c1ccccc1 | -3.2% | -14.7%
COc1ccc(NC(=O)c2sc3nc(C)c(C(=O)Nc4ccc(C)cc4C)c(-c4sccc4C)c3c2N)cc1 | -9.2% | -8.5%
O=C(NCC1CCCN1S(=O)(=O)c1cccs1)c1ccccc1 (configuration not stated) | i | -18.5%
CSc1nc2ccc(NS(=O)(=O)c3ccc([N+](=O)[O-])cc3)cc2s1 | -15.0% | 4.1%
CC(=O)Nc1cc(-c2ccccc2CN(C)C)cn2c(-c3ccc(F)c(Cl)c3)cnc12 | -20.9% | -23.4%
COc1cc(/C(C)=N/NC(=O)Cc2c(C)[nH][nH]c2=O)ccc1O | -14.9% | -11.7%
C/C=C/c1ccc2c(c1)O[C@@H](CN(C)C(=O)c1ccc(F)cc1)[C@@H](C)CN([C@H](C)CO)S2(=O)=O | -20.1% | -26.2%
CC(=O)NC(Cc1c[nH]c2ccccc12)C(=O)NCc1ccco1 (configuration not stated) | i | -19.8%
COc1ccccc1C(=O)NC(C)c1ccc(-n2ccnc2)cc1 (configuration not stated) | -3.5% | 8.1%
COCCNC(=O)Cc1c(C)c2cc3c(cc2oc1=O)OC(C)(C)CC3 | i | -18.0%
O=C(CNC(=O)N1CC(=O)Nc2ccccc21)Nc1ccc(Cl)cc1Cl | -26.1% | -15.1%
Cc1ccc(Cn2c(C)c3cnn(CC(=O)NC4CCCC4)c(=O)c3c2C)cc1 | ? | -15.9%
Nc1cccc2c(O)cccc12 | -9.0% | -5.7%
CC(C)c1ccc(CN2CCC2(C)C(=O)Nc2cccc(Oc3ccccc3)c2)cc1 (configuration not stated) | i | -26.3%
c1cncc(C2=NCCC2)c1 | -5.9% | -7.5%
C(=C\c1ccccc1)/CN1CCN(C(c2cc3ccccc3o2)c2nnnn2C2CCCC2)CC1 (configuration not stated) | -0.8% | -13.3%
CCc1nn(CC(=O)N2CCN(Cc3ccc4c(c3)OCO4)CC2)c(=O)c2cc3occc3n12 | i | -12.3%
Cc1ccc(-n2ncc3c(=O)n(Cc4cccc(C(F)(F)F)c4)cnc32)cc1C | -10.8% | -19.7%
Cn1c(=O)c2c(nc(CN3CCc4ccccc4C3)n2CCCO)n(C)c1=O | -11.3% | -4.1%
CCOc1ccccc1NC(=O)CSc1nc(=O)n(CCCN2CCOCC2)c2c1CCC2 | -19.0% | -14.7%
COc1ccc(C(=O)NCc2cn3ccccc3n2)cc1 | -16.9% | -15.3%
Cc1ccc2oc(=O)c3cnn(CC(=O)N(C)c4ccc(F)cc4)c3c2c1 | -2.0% | 2.7%
COc1cc(C2C(C#N)=C(N)N(c3cccnc3)C3=C2C(=O)CC(C)(C)C3)ccc1O (configuration not stated) | -2.0% | 8.0%
CCc1nnc(SCc2ccc(CSc3nnc(CC)n3N)cc2)n1N | -7.6% | -3.8%
Cc1ccccc1C(=O)N1CCN(c2ccc(NC(=O)c3ccccc3[N+](=O)[O-])cc2)CC1 | -3.0% | -23.5%
COc1cc(-c2noc(C)c2C(=O)NCc2ccc3c(c2)OCO3)cc(OC)c1OC | -13.1% | -5.2%
Cc1noc(C)c1S(=O)(=O)N(C)C[C@H]1OCc2cnnn2CCCC(=O)N([C@@H](C)CO)C[C@H]1C | -11.4% | -2.1%
CCOC(=O)c1cccc(NC(=O)C2CCN(S(=O)(=O)c3c(C)noc3/C=C/c3ccc(C)cc3)CC2)c1 | ? | -26.8%
Cc1cc2oc(=O)cc(CN3CCN(S(=O)(=O)c4cccs4)CC3)c2cc1C(C)C | -9.6% | -13.0%
CCOC(=O)c1[nH]c(C)c(C(=O)N(CC)CC)c1C | -11.1% | -6.5%
Cc1[nH]n(-c2ccccc2)c(=O)c1/C=N/c1ccccn1 | · | -10.5%
CC(C)OC(=O)c1cccc2c1C(=O)c1ccccc1-2 | -6.3% | -15.3%
CCOC(=O)CNC(=O)/C=C/c1c(Cl)cccc1Cl | i | -2.8%
O=C(C1CCC(Cn2c(=O)c3sccc3n(Cc3ccccc3F)c2=O)CC1)N1CCCCC1 (configuration not stated) | -15.5% | -7.9%
O=C(CCNC(=O)c1ccccc1Cl)Nc1ccc(Br)c(C(F)(F)F)c1 | i | -16.4%
CCOC(=O)C1=C(Cn2ccc(C(F)(F)F)n2)NC(=O)NC1c1ccc2c(c1)OCO2 (configuration not stated) | · | -22.5%

Compound profiles (already shown).
COc1cc(C2C(C#N)=C(N)N(c3cccnc3)C3=C2C(=O)CC(C)(C)C3)ccc1O (configuration not stated) is entered as Vaccinia mCherry = -2.0%; Vaccinia Venus = 8.0%
COc1ccc(NC(=O)c2sc3nc(C)c(C(=O)Nc4ccc(C)cc4C)c(-c4sccc4C)c3c2N)cc1 is entered as Vaccinia mCherry = -9.2%; Vaccinia Venus = -8.5%

Screening data (PubChem)

Not a hit list; overall some 0.88% were active at least once.
